RE007 growth inh – qHTS Assay for Inhibitors of the HIV-1 protein Vpr; Potency, µM (series often up to 92.2 µM), for the others: top-dose activity change, negative = less growth; hit rate 0.21% among 360,000; S. pombe RE007 Vpr strain, BacTiter-Glo ATP luminescence, 24 h; control for the full effect not named in the record; active = well fitted falling curve with a large enough effect; inconclusive = small, poorly fitted or top-dose-only effect; inactive = no such curve, though single readings can be large or run the other way;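 note: nearly all actives have a fitted effect of over 50% in size; the assay follows cell death caused by Vpr and the record does not say whether a fall means rescue or toxicity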
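Fission yeast strain RE007, carrying one chromosomally integrated HIV-1 vpr copy, was seeded at OD 0.01 in PMG+AL medium with 23 nL pinned compound. After 24 h at 30 °C and 99% humidity, viability was read by BacTiter-Glo luminescence.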
StopGo reporter – High Throughput Screening for Foot and Mouth Disease Virus Antivirals; AID 1159524, 2015; human cells with a luciferase reporter of 2A StopGo recoding; control for the full effect not named in the record; Potency, µM (highest dose often 57.9 µM), without a hit: at the top dose signal change, negative = less light; hit rate 1.2% among 410,000; active = well fitted falling curve with a large enough effect; inconclusive = small, poorly fitted or top-dose-only effect; inactive = no such curve, though single readings can be large or run the other way; tested in HEK293T cells; note: nearly all actives have a fitted effect of over 45% in size; luciferase light after 4 h
The depositor's hits bear a star; ? = inconclusive; [ ] = dose if it differs, or a comment. % is set by controls: 0 for no effect and ±100 for the full control effect; potency is the fitted concentration of half-maximal effect.

SMILES	RE007 growth inh	StopGo reporter
CCOC(=O)[C@]12CCCC=C1N(Cc1ccc(Cl)cc1Cl)C(=O)[C@H](CC(=O)NCCCOC)C2	63%	-4%
O=C1COc2ccccc2C(c2nc3ccccc3[nH]2)N1C1CC1 (stereo not drawn)	5%	-19%
CC(C)(C)S(=O)(=O)N1Cc2cc(=O)n(Cc3ccccc3)c(CCO)c2[C@@H]1CCO	11%	-3%
CC(=O)Nc1cc(-c2ccc(N3CCN(C)CC3)cc2)cn2c(-c3cccc(C(=O)N(C)C)c3)cnc12	-1%	0%
C=CS(=O)(=O)N(Cc1ccccc1Br)[C@H](CO)CC(C)C	7%	0%
COC(=O)c1ccc2c(c1C(=O)OC)CN(S(=O)(=O)C(C)(C)C)[C@@H]2CCO	-2%	-8%
Nc1ncnc2nc(-c3ccccc3)[nH]c12	12%	15%
COCOCCn1cc(CN2CCS(=O)(=O)N(Cc3ccc(-c4ccc(F)nc4)cc3)C(CC(C)C)C2=O)nn1 (stereo not drawn)	2%	?
CCN1C(=O)C(CC(=O)NCCc2ccccc2)N(NC(=O)c2ccc(Br)cc2)C1=S (stereo not drawn)	0%	?
Cc1cccc2sc(=S)[nH]c12	-27%	12%
O=C(NCc1cccc(C(F)(F)F)c1)c1ccc2sc(C3=C[C@@H](O)[C@@H](O)[C@@H](CO)O3)nc2c1	-1%	5%
CC(=O)Nc1cncc(-c2cccc(C(=O)N3CCOCC3)c2)n1	47%[18.4 µM]	-21%
CCOC(=O)CC1c2ccccc2-n2nncc2CN1Cc1ccc(OC)cc1 (stereo not drawn)	3%	0%
COCCNC(=O)C1CCCN(C(=O)c2ccc(C(F)(F)F)nc2C)CC1 (stereo not drawn)	-17%	0%
COC(=O)C1=C(CCc2ccccc2)NC(=O)NC1c1ccc(Cl)cc1 (stereo not drawn)	17%	0%
CC(C)(C)c1cc2nc(NCCc3ccc(S(N)(=O)=O)cc3)ccn2n1	10%[18.4 µM]	-3%
CCCS(=O)(=O)NC(=O)C1(C)CCCN(C(=O)c2cccc(C)c2C)C1 (stereo not drawn)	13%	-24%
CCc1nc2ccc(C(=O)NCCCn3ccnc3)cn2c1N(C)C(=O)C1CCCCC1	-12%[18.4 µM]	-8%
COc1cc(COc2ccc(S(=O)(=O)N3CCOCC3)cc2[N+](=O)[O-])ccc1OC(F)F	7%	?
C#CCN(C(=O)C1CCC(=O)N(CCc2cccc(F)c2)C1)C1CCCCC1 (stereo not drawn)	-3%	43%[activator]
C[C@H](CO)N1C[C@H](C)[C@H](CN(C)C(=O)Oc2cccc3ccccc23)OCc2cnnn2CCCC1=O	-10%	-29%
Cc1ccc(-c2noc(CCC(=O)Nc3cccc(C(=O)NC4CC4)c3)n2)cc1	-1%	-16%
C[C@@H]1CN([C@@H](C)CO)C(=O)c2cc(Br)cnc2O[C@H]1CN(C)Cc1ccccc1C(=O)O	-8%	-4%
Nc1cnccc1Oc1cccc(C(F)(F)F)c1	23%	-3%
C=CCC1(CC=C)CCCN1C(=O)c1ccc2oc(CCCC)nc2c1	18%	33%[activator]
COc1cccc(Nc2nc3cc(C)ccc3cc2C)c1	?	-6%
O=C1NC(Cc2ccccc2)c2nc3ccccc3c(=O)n2-c2cc3ccccc3cc21 (stereo not drawn)	-15%	-13%
COc1ccc(Cn2c(=O)oc3ccccc32)cc1OC	1%	?
C[C@@H]1CN([C@@H](C)CO)C(=O)c2cc(Br)cnc2O[C@H]1CN(C)C(=O)Nc1ccc2c(c1)OCO2	-24%	-15%
COC(=O)C1=C(c2cc3ccccc3s2)C[C@@H]2CC[C@H]1N2C(=O)N1CCCCC1	10%	-8%
CCCCCC(=O)N1C[C@@H](O)[C@H](n2cc(-c3ccc(F)cc3)nn2)C[C@@H]1c1ccc(Cl)cc1	18%	?
Cc1cc(-c2ccc(S(=O)(=O)NCc3ccc(Cl)cc3)cc2)on1	9%	26%
COc1ccc(-c2csc(C(O)c3cccc(Cl)c3)n2)cn1 (stereo not drawn)	-9%	-18%
CCCc1c(C(=O)N/N=C/c2c[nH]c3ccccc23)nnn1-c1nonc1N	1%	?
CCCc1nc2cc(C)c(Br)c(C)n2c1Cc1ccccc1OC	-7%	0%
CCn1cc(/C=C(\NC(=O)c2cc(OC)c(OC)c(OC)c2)C(=O)N2CCOCC2)c2ccccc21	-12%	-11%
CSc1nsc(NC(=O)Nc2ccccc2)n1	-14%	-4%
CC1(C(=O)NCc2ccccc2)CSCC(=O)N1Cc1ccco1 (stereo not drawn)	11%	-11%
CC(=O)NC(c1ccc(F)c(F)c1)c1nc(-c2cnn(C)c2)cs1 (stereo not drawn)	-3%[18.4 µM]	-7%
CN(C)c1ncnc2c1ncn2[C@H]1CN(Cc2ccc3c(c2)OCO3)C[C@@H](CO)O1	-2%	-19%
Cc1ccc(OC(=O)N(C)C[C@H]2OCc3cn(nn3)CCCC(=O)N([C@H](C)CO)C[C@@H]2C)cc1	11%	-17%
CCOC1=C2CN(S(=O)(=O)c3ccc(C)cc3)[C@H](c3cccc4ccccc34)C[C@H]2[C@H]2C(=O)N(c3ccccc3)C(=O)[C@H]2C1	-2%	-14%
COc1ccc(-c2ccc(C(=O)NCc3ccco3)c3occc23)c(C)c1	10%[18.4 µM]	12%
COc1ccc([C@H]2N[C@]3(CCCN(Cc4ccc(F)cc4)C3=O)[C@H]3C(=O)N(Cc4ccccc4)C(=O)[C@@H]23)cc1	5%	-10%
CN(C)C(=O)c1cccc(-c2cc(NC=O)c3ncc(-c4ccc(F)cc4)n3c2)c1	-13%[18.4 µM]	-23%
Cc1ccc([C@H]2C(C(=O)O)=CC[C@@H](c3cccc(Cl)c3)N2S(=O)(=O)c2ccc(C)cc2)cc1	-17%	-20%
CCOc1ccc(CCN2C(=S)N([C@@H](Cc3ccc(O)cc3)CN3CCC[C@@H]3CN3C(=S)NC[C@@H]3Cc3ccccc3)C[C@@H]2CC(C)C)cc1	9%	-8%
CCC(C)[C@H](N)C(=O)N[C@H]1CCC2C3CC=C4C[C@@H](O)CC[C@]4(C)C3CC[C@@]21C (stereo partly drawn)	0%	-19%
Cc1ccccc1-c1cc2c(c3c1ccn3C)C1CCC2C1 (stereo not drawn)	-1%	-20%
CCNC(=O)C1CCCN(C(=O)c2ccc(OC)cc2)CC1 (stereo not drawn)	4%[18.4 µM]	1%
COc1ccc(S(=O)(=O)Nc2ccc3c(c2)C(=O)N([C@H](C)CO)C[C@H](C)[C@@H](CN(C)C(=O)Nc2c(C)noc2C)OCCCC[C@H](C)O3)cc1	-19%	-16%
CN(CCc1ccccc1)C(C(=O)c1ccc2c(c1)OCO2)c1nnnn1-c1ccccc1NC(=O)OC(C)(C)C (stereo not drawn)	0%	40%[activator]
COc1ccc(CN2CCC2(C)C(=O)Nc2ccc(OC)c(OC)c2)cc1 (stereo not drawn)	-3%[18.4 µM]	-23%
COc1ccc(/C(N)=N/OC(=O)c2ccc3ccccc3c2)cc1OC	18%	-4%
CN1C(=O)CC(c2ccccc2)C1=O (stereo not drawn)	3%[18.4 µM]	-10%
CN(C)CCCNc1nc2cc(-c3ccccc3)sc2c(=O)n1C	-11%	-2%
O=C(Cc1cccc(NC(=O)C2CCN(C(=O)C3CCC3)CC2)c1)Nc1cccc(C(=O)N2CCOCC2)c1	7%	-17%
C[C@H](CO)N1C[C@H](C)[C@@H](CN(C)C(=O)CN2CCOCC2)Oc2ncc(-c3cncnc3)cc2C1=O	25%	-2%
CN(C)c1ccc(CC(=O)N2CCCC(c3cc(C(=O)Nc4ccccc4)no3)C2)cc1 (stereo not drawn)	-20%	-27%
COc1ccc(C(O)c2nc(-c3cc(F)cc(F)c3)cs2)cc1 (stereo not drawn)	0%	-5%

Looked up by compound from the list above (five):
SMILES	RE007 growth inh	StopGo reporter
COc1ccc(-c2ccc(C(=O)NCc3ccco3)c3occc23)c(C)c1	10%[18.4 µM]	12%
Cc1ccc(OC(=O)N(C)C[C@H]2OCc3cn(nn3)CCCC(=O)N([C@H](C)CO)C[C@@H]2C)cc1	11%	-17%
COc1ccc(C(O)c2nc(-c3cc(F)cc(F)c3)cs2)cc1 (stereo not drawn)	0%	-5%
CN(CCc1ccccc1)C(C(=O)c1ccc2c(c1)OCO2)c1nnnn1-c1ccccc1NC(=O)OC(C)(C)C (stereo not drawn)	0%	40%[activator]
COc1ccc(/C(N)=N/OC(=O)c2ccc3ccccc3c2)cc1OC	18%	-4%

Going on with the list.
SMILES	RE007 growth inh	StopGo reporter
CC(C)OC(=O)N(C)C[C@@H]1OCc2cnnn2CCCC(=O)N([C@H](C)CO)C[C@H]1C	-6%	-8%
COc1ccc(S(=O)(=O)NC(=O)C2(C)CCN2C(=O)Cc2ccccc2)cc1OC (stereo not drawn)	4%	-3%
CN1CC[C@]23c4ccccc4N[C@H]1[C@]21CCN(C)[C@H]3Nc2ccccc21	-11%[18.4 µM]	-24%
O=C1NC(Cc2ccc(O)cc2)c2nc3ccccc3c(=O)n2-c2ncccc21 (stereo not drawn)	-7%	-21%
O=C(NC(c1ccc(-c2ccccc2)cc1)c1cnccn1)C1CCN(CCOc2ccc(Cl)cc2Cl)CC1 (stereo not drawn)	-8%[18.4 µM]	35µM*
COc1ccc(-n2nnnc2C(CCc2ccccc2)N2CCN(C/C=C/c3ccccc3)CC2)cc1 (stereo not drawn)	-1%	-4%
C=CC[C@]12CC=CC(=O)[C@@]1(O)O[C@H](c1ccc(OC)c(OC)c1)[C@H]2C	-21%	20µM*
C[C@@H]1CN([C@H](C)CO)S(=O)(=O)c2ccc(C#CC3CCCCC3)cc2O[C@H]1CN(C)C(=O)Cc1ccncc1	14%	15%
Cc1cc(Br)cn2c(Cc3ccccc3)c(-c3ccccc3)nc12	-25%	-23%
Cc1cc(C)cc(CC(=O)N2CCC2(C)C(=O)NS(=O)(=O)c2ccc(C#N)cc2)c1 (stereo not drawn)	95%[18.4 µM]	-15%
C[C@@H]1CN(S(=O)(=O)C(C)(C)C)[C@@H](CCO)/C1=C\c1ccccc1	-19%	-24%
CCCNC(=O)N(C)C[C@@H]1Oc2ncc(Br)cc2C(=O)N([C@H](C)CO)C[C@@H]1C	0%	-13%
COCCNc1nc(NCCOc2ccccc2Cl)c2sccc2n1	7%	?
Cc1cccc(C)c1NC(=O)C(C)NCc1cccs1 (stereo not drawn)	-1%	0%
COc1ccc(-c2nc3c(s2)CCc2onc(-c4ccc(Br)cc4)c2-3)cc1	12%	-5%
CC1(C(=O)Nc2cnc3ccccc3c2)CCN1C(=O)C/C=C/c1ccccc1 (stereo not drawn)	6%	-23%
Cc1ccc(-c2nc3ccccc3n2C(C)C(=O)NC(C)(C)C)cc1 (stereo not drawn)	-29%	11%
CSCCC(c1nnnn1C(C)(C)C)N1CCC(n2c(=O)[nH]c3ccccc32)CC1 (stereo not drawn)	7%	?
Nc1ccccc1C(=O)NN=Cc1cccc([N+](=O)[O-])c1	-19%	0%
C1=C(c2ccccc2)Nc2ncnn2C1c1ccccc1 (stereo not drawn)	-24%	-16%

Whole records from above. Screens in order: RE007 growth inh	StopGo reporter
C[C@@H]1CN([C@H](C)CO)S(=O)(=O)c2ccc(C#CC3CCCCC3)cc2O[C@H]1CN(C)C(=O)Cc1ccncc1 in the list: 14%	15%
CCCNC(=O)N(C)C[C@@H]1Oc2ncc(Br)cc2C(=O)N([C@H](C)CO)C[C@@H]1C in the list: 0%	-13%
O=C(NC(c1ccc(-c2ccccc2)cc1)c1cnccn1)C1CCN(CCOc2ccc(Cl)cc2Cl)CC1 (stereo not drawn) in the list: -8%[18.4 µM]	35µM*

More compounds
SMILES	RE007 growth inh	StopGo reporter
O=C(Nc1ccc2c(c1)OCCO2)C(C1CC1)n1c(=O)c(-c2ccco2)nc2ccccc21 (stereo not drawn)	?	7%
O=C1CC(c2ccc(O)cc2)Oc2cc(O)ccc21 (stereo not drawn)	-8%	32%[activator]
COCOCCn1cc(CN2CCS(=O)(=O)N(Cc3ccc(-c4cccc(CO)c4)cc3)C(C)C2=O)nn1 (stereo not drawn)	-26%	-18%
CCCCC[C@H](C)N1C[C@@H](COCc2ccccc2)Oc2cc(N3CCC[C@@H]3CO)ccc2S1(=O)=O	9%	-17%
Cc1ccccc1NC(=O)Nc1nc(C(N)c2ccccc2)cs1 (stereo not drawn)	3%[18.4 µM]	10%
CCOc1ccc(CCN2C(=O)C(=O)N([C@@H](Cc3ccccc3)CN3CCC[C@H]3CN3C(=O)C(=O)NC[C@@H]3Cc3ccccc3)C[C@@H]2Cc2ccc(O)cc2)cc1	3%	-27%
O=C(Nc1nnc([C@H]2C[C@H](O)[C@@H](CO)O2)s1)Nc1ccccc1Oc1ccccc1	-3%[18.4 µM]	2%
COc1ccc(Br)c(C(=O)OCC(=O)NC2CCCCCCC2)c1	9%	-16%
CCCCN1C(=O)CC2CCOC21C (stereo not drawn)	-18%	-18%
C[C@H]1CN([C@@H](C)CO)S(=O)(=O)c2ccc(Br)cc2O[C@@H]1CN(C)Cc1ccccc1	-23%	0%
CCN(CC(=O)Nc1ccc(NC(C)=O)cc1)C(=O)C1CC1	18%	-12%
COc1ccc(NC(=O)N(C)C[C@H]2Oc3ncc(Br)cc3C(=O)N([C@H](C)CO)C[C@@H]2C)cc1	-2%	-5%
COc1ccc(C(N)c2csc(Nc3ccc(C(=O)c4ccccc4)cc3)n2)cc1 (stereo not drawn)	-24%	-18%
Cc1noc(C)c1C(=O)N1CCC1(C)C(=O)NS(=O)(=O)c1ccc(F)cc1F (stereo not drawn)	2%	-9%

Not all compounds are listed, so the mix of outcomes need not match the whole.
